Screening results from PubChem BioAssay.
Sa growth inh = S. aureus growth inhibition; 170,000 compounds, 0.53% hits; S. aureus RN4220 growth, OD600, 20 h, 42 °C; stronger effect = lower value; relative growth, % (no concentration beside the values);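 active means growth at 42 °C up to 50% and 20 or more points under that at 30 °C, or under 10% at both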;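 further: 300 nL library stock went into each well; scaled to the means of positive and negative controls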
HCMV UL50-53 inh = inhibitors of HCMV UL50-UL53 nuclear egress complex interaction | inhibition, % (concentration not given with the values) | HTRF UL50-UL53 interaction, normalized percent inhibition | 190,000 compounds, 0.15% hits;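 active means both replicates at 50% or more, plus weaker picks with an unusually low signal ratio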;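 further: stock transfer was 100 nL into about 20 µL; 0% = negative control wells and 100% = wells with untagged competitor protein; inactives centre near -12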
GIV-Gai inh = GIV-Galpha-i interaction inhibition. P08753. Galpha-i3/FITC-GIV peptide fluorescence polarization, 90 min; stronger effect = lower value; scaled: aluminum fluoride 0%, vehicle 100%. percent of control (FP), % (no concentration beside the values). 210,000 compounds, 0.42% hits. AID 1224905;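 active means replicate mean at 85% of control or lower, very high polarization wells dropped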;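 further: wells of about 15 µL received 100 nL stock; the first replicate is given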
Target sequence (P08753 whole entry, looked up): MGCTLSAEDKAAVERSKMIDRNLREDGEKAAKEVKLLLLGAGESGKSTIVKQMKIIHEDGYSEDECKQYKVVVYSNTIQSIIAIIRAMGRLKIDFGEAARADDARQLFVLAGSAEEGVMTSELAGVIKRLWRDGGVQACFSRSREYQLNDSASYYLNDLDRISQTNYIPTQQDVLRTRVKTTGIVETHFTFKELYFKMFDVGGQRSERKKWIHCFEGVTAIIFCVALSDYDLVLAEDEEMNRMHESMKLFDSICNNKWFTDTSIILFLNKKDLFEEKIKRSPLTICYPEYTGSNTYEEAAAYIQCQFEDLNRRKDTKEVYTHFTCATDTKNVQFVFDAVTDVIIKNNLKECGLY
Sa growth inh second temp = further read-out of Sa growth inh, marked with its call; relative growth, %; measured here: growth at 30 °C;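 optical density after 20 h as mean of two plates; 100% = untreated growth and lower means inhibition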
* marks the source's active call; other numbers are inactive results; . = not tested or not shown; & = joins results of further samples. The order is random. Share with any hit: about 0.85%.

canonical_smiles,HCMV UL50-53 inh,Sa growth inh,Sa growth inh second temp,GIV-Gai inh
Cc1nc(N2CCOCC2)sc1C(=O)c1ccc(Cl)c(S(=O)(=O)N2CCOCC2)c1,-27,96,95,.
COc1cccc(N(Cc2nnc3n2CCCCC3)C(=O)Nc2cccc(Cl)c2)c1,.,75,84,102
O=S(=O)(NCc1nc(-c2ccc(C(F)(F)F)cc2)no1)c1cccs1,-12,93,91,96
Cc1cccc(C)c1N1CCN(S(=O)(=O)N2CCCCC2)CC1,-8,123,108,102
C#CC(CC)(CC)NC(=O)NC1CCCCC1,9,105,101,98
OCc1cn(-c2ccccc2)nc1-c1ccc2c(c1)OCCO2,-7,101,66,99
Cc1cccc(-c2nc(SCCCOc3ccc(Cl)c(C)c3)n3[nH]c(=O)cc3n2)c1,.,90,85,99
CCOC(=O)C(C#N)C1(c2c(C)[nH]n(-c3ccccc3)c2=O)C(=O)N(c2ccccc2)N=C1C (stereo not given),-33,95,87,104
C(=N\n1cnnc1)/c1cccc2ccccc12,.,110,64,107
O=C(COCc1cc(-c2ccc3c(c2)OCO3)on1)NC1CCCc2ccccc21 (stereo not given),-20,97,89,105
Cc1ccc(OCCSc2nc3ccccc3n2CC(=O)N2CCOCC2)cc1C,-9,107,86,102
C/[N+]([O-])=C/c1ccccc1,-28,.,.,104
c1ccc2sc(NC3=NCN(Cc4ccc5c(c4)OCO5)CN3)nc2c1,-9,114,82,105
COc1ccc2c(CC(=O)OCc3cc(Cl)c4c(c3)OCCCO4)coc2c1,-12,84,93,.
COc1cc(SC)ccc1C(=O)NCC1CCCCC1,-18,98,98,.
CC(=O)Nc1nonc1-c1nnc(SCC(=O)Nc2cc(C)cc(C)c2)n1C,-17,92,77,101
c1nc(N2CCCC2)c2nc3n(c2n1)CCCCC3,-26,90,83,101&98
CN(C)c1ccc(CNC(=O)C(NS(=O)(=O)c2ccc3c(c2)CCC(=O)N3)c2ccccc2)cc1 (stereo not given),-2,104,93,101
COc1ccccc1-c1nn2c(Cn3cnc4ccccc43)nnc2s1,-45,84,59,110
CCOC(=O)C1CCN(C(=O)C2CCN(c3nnc(C)c4c(C)n(-c5ccccc5)nc34)CC2)CC1,.,106,100,102

Continuation.
canonical_smiles,HCMV UL50-53 inh,Sa growth inh,Sa growth inh second temp,GIV-Gai inh
Cc1ccc(OCC(=O)NCC(=O)OCc2cc(=O)n3nc(CC(C)C)sc3n2)cc1,.,100,98,104
Cc1c(C=Nc2ccc(SC#N)c(Cl)c2)c(O)[nH]c(=O)c1C#N,-16,94,82,49*
Cc1cc2nn(-c3ccccc3)nc2cc1NC(=O)c1ccccc1,1,101,93,101
Cn1nc(C(=O)N(Cc2ccco2)Cc2cccs2)ccc1=O,-7,106,105,.
Cc1cc(C)cc(NC(=O)N2CCC(c3nc(-c4ccccc4)no3)CC2)c1,-19,.,.,104
CCCCc1c(C)nc2ccc(Br)cc2c1SCCC(=O)O,-8,56,28,.
CCn1c(C)ccc(-c2noc(CCC(=O)Nc3nccs3)n2)c1=O,-15,.,.,106
Cc1cc2occ(CC(=O)Nc3ccc(S(=O)(=O)N4CCOCC4)cc3)c2cc1C(C)C,-25,97,82,.
Cc1nnn(C23CC4CC(CC(C(=O)Nc5ccc(Br)cc5)(C4)C2)C3)n1,8,106,100,104
Cc1cc(C)c2c3c1C1C=CCC1CN3C(C(=O)O)C1CC=CC21 (stereo not given),.,162,45,122
COC(=O)c1scc(C)c1NC(=S)OC,-4,91,90,100
C=CCc1ccccc1OCCn1c(C2CC(=O)N(Cc3ccc(F)cc3)C2)nc2ccccc21 (stereo not given),-29,67,3,100
CC(C)(C)NC(=O)N1c2ccccc2Sc2ccccc21,.,110,78,105
COc1ccc(NC(=O)CN(C)C(=O)c2oc3ccccc3c2C)cc1,7,107,101,.
N#CC(=C1SCCCS1)S(=O)(=O)c1ccc(Cl)cc1,-5,111,83,102
Cn1c(=Nc2cccc(O)c2)ccc2ccccc21,.,116,103,110
O=S(=O)(NCc1ccc(-c2cccs2)cc1)c1cccs1,-24,99,76,115
Cc1ccc(Sc2cc3c(cc2NS(=O)(=O)c2ccccc2Cl)n(C)c(=O)n3C)cc1,-31,.,.,106
COc1ccc(NC(=O)CN2CCCN(S(=O)(=O)c3ccc(Br)cc3)CC2)c(OC)c1,-4,87,82,100
COc1cc(C(=O)NCC(c2ccco2)S(=O)(=O)c2cccs2)cc(OC)c1OC (stereo not given),.,118,81,97

New compounds follow.
canonical_smiles,HCMV UL50-53 inh,Sa growth inh,Sa growth inh second temp,GIV-Gai inh
Cn1nc(-c2ccc(Cl)cc2)c2cc(C(=O)NCc3ccco3)sc21,5,101,88,115
CCOC(=O)N1CCC(NS(=O)(=O)c2ccc(Cl)s2)CC1,0,105,100,108
COc1ccc(-c2nc(C=C3C(=O)c4ccccc4C3=O)c3ccccn23)cc1,.,92,91,242
Cn1c(=O)c2c(ncn2Cc2ccc(Cl)cc2)n(C)c1=O,-3&-16,102,93,108&104
CN(C(=O)CSc1cccc[n+]1[O-])c1ccccc1,-12,97,93,.
O=C(CCC1CCCCC1)Nc1nccs1,-36,87,69,99
CCN(c1cccc(C)c1)c1ccccc1C,5,120,113,.
O=C(CCCc1ccccc1)Nc1cccc(C(=O)O)c1,-5,110,102,104
CCCN(C(=O)c1nn(-c2ccc(OC)c(Cl)c2)c(=O)c2c1c1ccccc1n2C)c1ccccc1F,-19,104,94,105
Cc1nc2ncccc2c(=O)n1-c1cccc(NC(=O)CC2CCCC2)c1,2,.,.,100
CC(C(=O)N1CCCCC1)n1ncn2cccc2c1=O (stereo not given),-1,81,86,102
OC(CSc1nncn1-c1ccccc1)C(F)(F)F (stereo not given),-26,103,95,105
Cc1csc2nc(CNC(=O)C3CCCCC3)cn12,.,131,86,108
COc1ccc(-c2cc(C(F)(F)F)n3nc(C(=O)NCC45CC6CC(CC(C6)C4)C5)cc3n2)cc1,-5,100,95,103
CC(C)COc1ccc(C(=O)Nc2ccc(S(=O)(=O)Nc3ncccn3)cc2)cc1,-33,114,88,98
CC1(NS(C)(=O)=O)CC=CC1,3,95,81,118
Cc1ccc(S(N)(=O)=O)cc1F,-15,111,92,.
CNC(=O)CN(c1ccc(Cl)cc1Cl)S(C)(=O)=O,5,95,104,109
COC(=O)c1cc(C)nc2c1c(C)nn2-c1ccccc1Cl,-15,89,82,106
CCOC(=O)c1sc(=NC(C)=O)n(C)c1C,34,110,101,104

(listing goes on)
canonical_smiles,HCMV UL50-53 inh,Sa growth inh,Sa growth inh second temp,GIV-Gai inh
C=CCN1CCN(C(=O)c2ccc(Br)cc2)CC1,19,99,101,112
COc1ccc(C(CC(=O)Nc2cc(Cl)c(OC)cc2OC)N2Cc3ccccc3C2=O)cc1 (stereo not given),.,131,84,103
CC1CCN(C(=O)Cn2cc(SCc3ccc(Cl)cc3)c3ccccc32)CC1,-14,.,.,107
O=C(NCC(c1cccs1)N1CCOCC1)C(F)(F)F (stereo not given),-19,89,85,.
Clc1ccc(-c2ccc(-c3nn4c(Cc5ccccc5)nnc4s3)o2)cc1,-18,91,78,101
O=C1c2ccccc2C2=Nc3ccccc3OC12O (stereo not given),-61,87,79,102
CC(C)CN1C(=O)N(c2ccccc2)C(n2oc(=O)n(-c3ccccc3)c2=O)C1(C)C (stereo not given),2,84,87,.
CC(=O)Oc1ccc2ccc3ccc(OC(C)=O)c4ccc1c2c34,.,78,72,99
CC1CN(C(=O)c2cccc(Cl)c2)CC(C)O1 (stereo not given),-13,95,86,99
CCN(CC)c1ccc(/C=C2/C(=O)N=C(N)N2C)cc1,.,85,85,150
Cc1ccc(OCC(=O)Nc2sc3c(c2C(N)=O)CCCC3)c(C(C)(C)C)c1,-49,96,85,98
COC(=O)c1sc(NC(=O)c2cc(-c3ccccc3)nc3ccccc23)c(C(N)=O)c1C,-4,.,.,109
Cc1cc(C=C(C#N)C#N)c(C)n1-c1ccc(N2CCOCC2)cc1,-23,88,72,105
O=C(Nc1c(-c2ccccc2)nc2ccccn12)c1cccnc1,-12,.,.,103
Cc1ccc(Nc2ccccc2N)cc1,-49,3,7,.
CC(C)c1ccc(CNCCSc2nnnn2-c2ccccc2)cc1,-23,107,77,100
Cc1ccc(N2C(=O)C3C4C=CC(CC4)C3C2=O)c(Br)c1 (stereo not given),-24,.,.,98
Cc1cc(C)c(NC(=O)C2CCCN(C(=O)c3cnn(-c4ccccc4)c3-n3cccc3)C2)c(C)c1 (stereo not given),-26,109,71,103
CCN1CCCC1CNC(=O)c1cc2ccc3cccnc3c2[nH]1 (stereo not given),-21,113,72,102
COc1ccc(OCC(=O)Nn2c(=S)[nH]c3ncccc3c2=O)cc1,.,109,86,98

Continued:
canonical_smiles,HCMV UL50-53 inh,Sa growth inh,Sa growth inh second temp,GIV-Gai inh
CC(C)(C)S(=O)(=O)CCC#N,-12,111,103,97
Cc1ccccc1NC(=O)COC(=O)c1ccc2c(c1)C(=O)N(CCCN1CCOCC1)C2=O,-50,93,88,.
Cc1ccc(CN2CCN(C3CCN(S(=O)(=O)c4ccc(C)c(C)c4)CC3)C(=O)C2=O)cc1,4,.,.,103
CCC(=O)N1CCc2cc(Br)cc(S(=O)(=O)N3CCC(C(=O)NCCCOC(C)C)CC3)c21,7,93,98,108
CCOC(=O)c1[nH]c2ccccc2c1NC(=O)c1ccc(C)c(C)c1,0,101,100,104
COC(=O)CSc1nnc(CNC(=O)c2ccc(S(=O)(=O)N3CCCCC3)cc2)n1C,.,89,79,106
O=c1ccc(=O)n(CN2CCN(Cc3ccccc3)CC2)[nH]1,-66,88,76,107
COCC(=O)Nc1cccc(-c2nc3cccnc3s2)c1,-36,88,55,102
COc1ccc2c(c1OC)C(=O)N1c3ccccc3COC21 (stereo not given),-9,102,88,100
CC1=Nc2nc(N3CCCCC3)c(C#N)c3c4c(nc(c23)N1)N(c1ccc(C)cc1)C(=O)C4,-55,97,73,.
CCOc1ccc(CCNc2ccc3nnc(-c4ccccc4)n3n2)cc1OCC,-21,.,.,103
CC(C)Cn1c(SCC(=O)c2ccc3[nH]c(=O)[nH]c3c2)nc2ccccc21,-20,83,61,.
CCOc1ccc(S(=O)(=O)NCC(c2ccc(N(C)C)cc2)N2CCCC2)cc1 (stereo not given),.,98,88,102
Cc1ccc(CNC(=O)C2CCN(S(=O)(=O)c3cn(C)cn3)CC2)cc1,.,84,88,98
O=C1CCCc2[nH]c(=O)cc(C(F)(F)F)c21,-53,89,89,106
C=CCn1c(SCc2ccc(Cl)cc2)nc2cc(C(=O)N3CCC(C(N)=O)CC3)ccc2c1=O,.,97,84,104
NNC(=S)NC12CC3CC(CC(C3)C1)C2,.,99,89,99
O=C(NCc1ccco1)c1ccc2c(c1)CCN2S(=O)(=O)c1ccccc1,-14,95,81,102
O=C(O)CC1C(=O)NCCN1Cc1cccc(F)c1 (stereo not given),-7,.,.,103
CS(=O)(=O)Nc1ccccc1-c1nc2ccccc2[nH]c1=O,-89,103,87,105

An excerpt of these results, with values under each structure.
Values run as follows: HCMV UL50-53 inh	Sa growth inh	Sa growth inh second temp	GIV-Gai inh
> O=C(O)CC1C(=O)NCCN1Cc1cccc(F)c1 (stereo not given)
    -7	.	.	103
> CCOc1ccc(S(=O)(=O)NCC(c2ccc(N(C)C)cc2)N2CCCC2)cc1 (stereo not given)
    .	98	88	102
> CC1=Nc2nc(N3CCCCC3)c(C#N)c3c4c(nc(c23)N1)N(c1ccc(C)cc1)C(=O)C4
    -55	97	73	.
> COc1ccc2c(c1OC)C(=O)N1c3ccccc3COC21 (stereo not given)
    -9	102	88	100
> O=c1ccc(=O)n(CN2CCN(Cc3ccccc3)CC2)[nH]1
    -66	88	76	107
> COCC(=O)Nc1cccc(-c2nc3cccnc3s2)c1
    -36	88	55	102
> CCOc1ccc(CCNc2ccc3nnc(-c4ccccc4)n3n2)cc1OCC
    -21	.	.	103

Other records follow:
canonical_smiles,HCMV UL50-53 inh,Sa growth inh,Sa growth inh second temp,GIV-Gai inh
CCOC(=O)c1c(CC(C)C)csc1NC(C)=O,-12,110,105,101
Cc1cc(=O)n2[nH]c(CN(C(=O)c3ccc(C(C)(C)C)cc3)c3ccc(F)cc3)nc2n1,-14,.,.,103
CCc1c(O)n2c(nc3ccccc32)[nH]c1=O,-15,83,89,302
CCOC(=O)c1cnc(SC(CC)C(=O)Nc2ccc(Br)cc2)nc1N (stereo not given),-6,.,.,95
O=C(/C=C/c1cccc2ccccc12)N1CCCCC1,-57,94,82,104
CS(=O)(=O)Nc1ccc(N2CCN(c3ccc(C(F)(F)F)cn3)CC2)nc1,-53,101,83,108
NC(=S)CC(=O)Nc1ccccc1,-18,53,61,.
CCCCn1c(O)c(C#N)c(C)cc1=O,14,100,91,106
COc1ccc(-c2cn3nc(N4CCC(C(=O)Nc5ccc(C)cc5)CC4)sc3n2)cc1,.,112,99,110
COCCCN=CC1=C(O)CC(C)(C)CC1=O,-14,93,92,98
